High-throughput results: PubChem BioAssay, National Center for Advancing Translational Sciences (NCATS)
2A Renilla: lowers the Renilla signal of an FMDV 2A StopGo reporter; Potency, µM (highest dose often 57.5 µM), for inactives: top-dose signal change, negative = less light; actives 0.32% (n = 120,000); AID 1745857; HEK cells with a luciferase reporter of 2A StopGo recoding; active means well fitted falling curve with a large enough effect; inconclusive means small, poorly fitted or top-dose-only effect; inactive means no such curve, though single readings can be large or run the other way; further: nearly all actives have a fitted effect of over 55% in size; overnight with compound
StopGo FLuc: FMDV 2A StopGo reporter, firefly signal. HEK cells with a luciferase reporter of 2A StopGo recoding. Potency, µM (top dose mostly 57.5 µM), for the others: at the top dose signal change, negative = less light. actives 0.23% (n = 120,000); active = well fitted falling curve with a large enough effect; inconclusive = small, poorly fitted or top-dose-only effect; inactive = no such curve, though single readings can be large or run the other way; further: nearly all actives have a fitted effect of over 60% in size; overnight with compound
The depositor's hits bear a star; ? = inconclusive; & = joins results of further samples; [ ] = remark or other dose. On the % scale 0 is the no-effect control and ±100 the full control effect; potency means the concentration at half of the fitted maximal effect. The list is partial, so the mix of outcomes need not match the whole.

SMILES | 2A Renilla | StopGo FLuc
O=C(CN1CCCCC1c1nc2ccccc2s1)NC(=O)Nc1ccc2c(c1)OCCO2 (stereo not given) | 1% | 11%
CCNc1nnc(SCc2nc(-c3ccc(F)cc3)no2)s1 | -31% | 9%
CCCn1c2ccccc2c2cnn(CC(=O)NCCc3ccc(C)cc3)c(=O)c21 | 7% | -44%
COc1cccc(CNCCCSc2nnnn2C)c1OC | 2% | -12%
O=C(CCCc1cccs1)NCc1ccccc1COc1ccccc1 | 35%[activator] | 11%
Cc1ccc2nc(NS(=O)(=O)c3ccc(Cl)cc3)c(Nc3ccc(C(=O)O)cc3)nc2c1 | 9% | 64%[activator]
Cc1cc(=O)oc2cc(OCC(=O)NC(=O)NC3CCCCC3)ccc12 | -12% | -8%
Cc1cccc(NC(=O)CCS(=O)(=O)c2cccc3nsnc23)c1C | 4% | -10%
Cc1ccc(/C=C/C(=O)N2CCN(Cc3ccccc3)CC2)cc1 | -6% | 49%[activator]
COc1ccc(C(C)=O)cc1CN(C)Cc1ccccc1 | -4% | -6%
CC(C(=O)c1c[nH]c2ccccc12)N1CCC(C(=O)N2CCCCCC2)CC1 (stereo not given) | -17% | -12%
CCCN(CCC)CCCNC(=O)c1cc2c(=O)oc3ccc(C)cc3c2s1 | -6% | -16%
CCOC(=O)c1c(-c2ccc(C)cc2)csc1NC(=O)c1nc(SC(C)C)ncc1Cl | -5% | -19%
CCc1ccc(N2C(=O)CS(=O)(=O)C23C(=O)N(Cc2ccccc2)c2ccccc23)cc1 (stereo not given) | -2% | 0%
CC(C)Cc1nnc(NC(=O)CCc2c[nH]c3ccccc23)s1 | -9% | 8%
Oc1c(C(c2ccccc2Cl)N2CCN(Cc3ccccc3)CC2)sc2nc(-c3ccco3)nn12 (stereo not given) | ? | -3%
Cc1ccc(CNC(=O)C(=O)Nc2c3c(nn2-c2ccccc2)CSC3)cc1 | -8% | -8%
CCOC(=O)c1cccc(NC(=O)C2(S(=O)(=O)c3ccc(C)cc3)CC2)c1 | 16% | -9%
CC(=O)N(CCC1(Cc2ccccc2)CCOC(C)(C)C1)Cc1ccccc1 (stereo not given) | 0% | -11%
Cc1ccc(-n2nc3c(N4CCC(C(=O)NCc5ccccc5Cl)CC4)nnc(C)c3c2C)cc1 | 6% | -5%
CCCCOC(=O)COc1ccc2c(=O)c(Oc3cccc(C)c3)c(C(F)(F)F)oc2c1 | -6% | 9%
Cc1cn2c(/C=C/C(=O)c3ccc(S(=O)(=O)N(C)C)cc3)c(C)nc2s1 | ? | ?
FC(F)(F)c1ccc(Cl)c(N/N=C/C(c2ccccc2)c2ccccc2)c1 | 6% | 3%
COCCn1cnc2c1c(=O)n(CC(=O)NC1CCCCC1)c(=O)n2Cc1ccccc1 | -6% | -3%
Cn1nc(C(=O)Nc2cc(-c3cccc(F)c3)no2)c2c1-c1ccccc1OC2 | -8% | 11%
CN(C)CCCNC(=O)c1cc(-c2ccc3c(c2)OCO3)nc2ccccc12 | -14% | -8%
C=CCOc1ccc(C(=O)Nc2cccc(OC)c2)cc1 | 20% | 0%
CC(=O)NCc1ccc(-c2csc(Nc3ccc(F)cc3)n2)o1 | 24% | 165%[activator]
Cc1ccccc1NC(=O)c1sc2nc(-c3cc4ccccc4oc3=O)[nH]c(=O)c2c1C | 1% | -12%
COc1cc(NC(=O)c2nn(C)c(=O)c3ccccc23)cc(OC)c1OC | -6% | -9%
COC(=O)C1=CNC=C(C(=O)OC)C1c1cccc(Br)c1 | 61%[activator] | 0%
Cc1cccc(-n2c(CNC(=O)c3cccc(F)c3)nnc2SCC(=O)Nc2ccccc2F)c1 | -1% | -15%
O=C(CN(C1CCCCC1)S(=O)(=O)c1ccccc1)N1CCOCC1 | 55%[activator] | -4%
COc1ccc(/C=C/C(=O)OC2CCC(C(C)(C)C)CC2)cc1OC (stereo not given) | 6% | 0%
O=C(c1ccc(S(=O)(=O)N2CCOCC2)cc1)N(Cc1ccco1)C1CCS(=O)(=O)C1 (stereo not given) | -8% | 3%
Cc1ccc2cc(CCl)c(Cl)nc2c1C | 9% | 35%
CCN(CCCc1ccccc1)CCCc1ccccc1 | -13% | ?
CC(C)(C)OC(=O)N1CCC(c2c(C(=O)N3CCN(Cc4ccccc4)CC3)cnn2-c2cccc(Cl)c2)CC1 | -8% | -14%
COc1cc(OC)c(Nc2nc3ccccc3c3nncn23)cc1Cl | 35%[activator] | 6%
CC(C)N(C(=O)CSc1cn(CC(=O)N2CCCCCC2)c2ccccc12)C(C)C | 21% | -12%
CCOc1ccc(CCNC(=O)CCn2c(=O)c3cccn3c3ccc(F)cc32)cc1OCC | -3% | -11%
CN1C(=O)Cc2cc(S(=O)(=O)CCC(=O)Nc3ccc(F)c(Cl)c3)ccc21 | -9% | -9%
Cc1nn(CC(=O)Nc2ccc3c(c2)nc(CCN2CCOCC2)n3C)c(=O)c2ccccc12 | -9% | -11%
CCc1cccc(C)c1Nc1nc(N)c(C(=O)c2ccc(OC)cc2)s1 | 3% | 8%
CCOc1ccc(NC(=O)Cn2c(=O)n(C)c(=O)c3sc(N4CCCC4)nc32)cc1 | -24% | -26%
NC(=O)c1ccc(NC(=O)c2cccn(Cc3ccccc3)c2=O)cc1 | 20% | 34%[activator]
COC(=O)c1cccc(N=Cc2cc(Cl)ccc2O)c1 | 9% | 0%
Cc1cccc(C(=O)Nc2ccc3nsnc3c2)c1 | -1% | 161%[activator]
CCN(c1ccccc1)S(=O)(=O)c1cc(C(=O)O)cc2c1CCC2 | 11% | 2%
CCOc1ccc(C(=O)Nc2nnc(S(=O)(=O)N(CC)c3ccccc3C)s2)cc1 | -4% | 2%
COc1ccc(NC(=O)N2CCN(c3nc(C)cc(Nc4ccc(C)cc4)n3)CC2)cc1 | ? | ?
Cc1ccccc1CSCCNC(=O)C1CCN(S(=O)(=O)Cc2ccccc2)CC1 | -8% | -15%
COc1ccccc1CNC(=O)c1ccc2[nH]c(C)c(C)c2c1 | 54%[activator] | 61%[activator]
O=C(c1cc(C2=NNC(=Nc3ccccc3F)SC2)c[nH]1)N1CCCC1 | 49%[activator] | 136%[activator]
CCN(CC)C(=O)Cn1c(=O)n(CCCCCC(=O)Nc2ccccc2)c(=O)c2sccc21 | -9% | 0%
O=C(Nc1ccc2c(c1)CCC2)c1cc(-c2ccc(F)cc2)nc2ccc(Br)cc12 | 23% | 0%
CCOC(=O)c1cnc2ccccc2c1N1CCN(CC(=O)N(C)C)CC1 | -9% | 0%
O=C(Nc1ccc(C(F)(F)F)cc1)c1nn(-c2ccccc2)c(=O)c2ccccc12 | 0% | -2%
CN(CC(=O)NCC(F)(F)F)C(=O)Cc1c[nH]c2ccccc12 | 14% | 11%
COc1ccc(OCCOC(=O)c2cc(C)nc3ccccc23)cc1 | 3% | 19%

One compound at a time, from the list above. Screens in order: 2A Renilla, StopGo FLuc
CCOc1ccc(C(=O)Nc2nnc(S(=O)(=O)N(CC)c3ccccc3C)s2)cc1 across the screens: -4%, 2%
COC(=O)c1cccc(N=Cc2cc(Cl)ccc2O)c1 across the screens: 9%, 0%
Cc1ccccc1CSCCNC(=O)C1CCN(S(=O)(=O)Cc2ccccc2)CC1 across the screens: -8%, -15%
COc1ccc(OCCOC(=O)c2cc(C)nc3ccccc23)cc1 across the screens: 3%, 19%
CCOC(=O)c1cnc2ccccc2c1N1CCN(CC(=O)N(C)C)CC1 across the screens: -9%, 0%

Following part:
SMILES | 2A Renilla | StopGo FLuc
Cn1c(=O)n(-c2cccc(Cl)c2)c(=O)c2sc3ccccc3c21 | -1% | -5%
COc1cccc(NC(=O)CSc2nc3ccccc3o2)c1 | 13% | 146%[activator]
Cc1cccc(N(C)C(=O)C2CCC(CNS(=O)(=O)c3cccc4nsnc34)CC2)c1 (stereo not given) | -7% | -8%
CC(C)CCn1c(=O)c2cccnc2n(CC(=O)Nc2ccccc2F)c1=O | 21% | 34%
Cc1cc(C)cc(-n2c(SCC(=O)N3CCC(C)CC3)nc3c([nH]c4ccccc43)c2=O)c1 | -15% | 1%
CCOC(=O)c1c(NC(=O)C2c3ccccc3Oc3ccccc32)sc(C(=O)N(CC)CC)c1C | -14% | -9%
CC1CCCC(O)CCCCCc2cc(O)cc(O)c2C(=O)O1 (stereo not given) | -13% | -24%
CC(=O)C1=CCC2C3CC=C4CC(O)CCC4(C)C3CCC12C (stereo not given) | -22% | 0%
COC(=O)c1cc(NC(=O)c2cnn3cccnc23)cc(C)c1C | 13% | 0%
O=C(Nc1cccc(OCC2CCCO2)c1)C1CCN(C(=O)C2CC2)CC1 (stereo not given) | -10% | -7%
Nc1ccc(N)c([N+](=O)[O-])c1 | -15%[114 µM] | 6%[22.9 µM]
CC1(C)CN(C(=O)C2CCCO2)CCO1 (stereo not given) | 7% | 3%
Cc1c(Nc2nc3ccccc3n3c(C)nnc23)cccc1C(=O)O | -5% | 23%
Cc1ccc(NC(=O)CN2C(=O)C(c3ccccc3)=NC23CCCCC3)cc1C | -9%&7% | -8%&0%
CC(C)c1ccccc1NC(=O)c1cnc2ccccc2n1 | 9% | 199%[activator]

Entries above containing bromine, in the order listed:
SMILES | 2A Renilla | StopGo FLuc
COC(=O)C1=CNC=C(C(=O)OC)C1c1cccc(Br)c1 | 61%[activator] | 0%
O=C(Nc1ccc2c(c1)CCC2)c1cc(-c2ccc(F)cc2)nc2ccc(Br)cc12 | 23% | 0%

Molecules shown so far that have a tert-butyl group (two):
SMILES | 2A Renilla | StopGo FLuc
COc1ccc(/C=C/C(=O)OC2CCC(C(C)(C)C)CC2)cc1OC (stereo not given) | 6% | 0%
CC(C)(C)OC(=O)N1CCC(c2c(C(=O)N3CCN(Cc4ccccc4)CC3)cnn2-c2cccc(Cl)c2)CC1 | -8% | -14%

By substructure: the entries above with a COOH group.
SMILES | 2A Renilla | StopGo FLuc
Cc1ccc2nc(NS(=O)(=O)c3ccc(Cl)cc3)c(Nc3ccc(C(=O)O)cc3)nc2c1 | 9% | 64%[activator]
CCN(c1ccccc1)S(=O)(=O)c1cc(C(=O)O)cc2c1CCC2 | 11% | 2%
Cc1c(Nc2nc3ccccc3n3c(C)nnc23)cccc1C(=O)O | -5% | 23%

New compounds follow.
SMILES | 2A Renilla | StopGo FLuc
COc1cc(OC)cc(C(=O)Nc2ccc3nc(N4CCCCC4)cc(C)c3c2)c1 | -1% | -2%
Cc1c2cnn(CC(=O)NCc3ccc(F)cc3)c(=O)c2c(C)n1Cc1ccccc1F | -13% | -15%
Cc1ccc(C(=O)Nc2ccccc2)cc1NC(=O)CC(C)(C)CC(=O)O | 16% | 0%
Cc1ccccc1C(=O)Nc1ccc2c(c1)nc(CN1CCC(C)CC1)n2C | 13% | 23%
CC(C(=O)N1CCNC1=O)N(C)Cc1ccc(Cl)cc1Cl (stereo not given) | 3% | 15%
COc1ccc(NC(=O)CCCOc2cc(=O)n(C)c3ccccc23)c(OC)c1 | -10% | -8%
Cc1ccc2nc(C)c(C(=O)NCc3cccnc3OC(C)C)cc2c1 | ? | ?
CCOC(=O)Nc1ccc(C(=O)OC)cc1 | 18% | 131%[activator]
C[C@@H]1C[C@H]2[C@@H]3CCC4=CC(=O)C=C[C@]4(C)[C@@]3(F)[C@@H](O)C[C@]2(C)[C@H]1C(=O)CO | 10% | -2%
COc1cc(CN2CCc3nc(N4CCN(c5ncccn5)CC4)ncc3C2)cc(OC)c1OC | 7.1µM* | ?
Cc1ccc(CCNC(=O)CS(=O)Cc2nc(-c3ccccc3C)oc2C)cc1 (stereo not given) | 9%&0% | -5%&3%
Cc1ccccc1NC(=O)C(C#N)=C1CCCCC1 | 8% | 23%
CC(C)c1ccc(Cc2cnc(NC(=O)c3ccc4c(c3)CC(c3ccccc3)OC4=O)s2)cc1 (stereo not given) | -10% | -3%
